# Bioassay records deposited in PubChem by National Center for Advancing Translational Sciences (NCATS).
# Rango release inh: inhibitors of RanGTP-induced Rango-importin beta complex dissociation; O95149+P62826; 340,000 tested, 0.071% active; Biochemical FRET Rango-importin beta, RanGTP-induced dissociation; AID 540253; Potency, µM (titrated, usually from 46.1 µM), for inactives: top-dose activity change, negative = inhibition; active means falling FRET ratio curve, often poorly fitted, with flat reads before Ran was added; inconclusive means other falling curves, or compound fluorescence or quenching; inactive means flat or rising ratio curve;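 also: potency is read from the fitted curve at half-maximal effect; % of control where 0% means no effect; nearly all actives have a fitted effect of over 45% in size; -100% = wells without RanGTP and RCC1; the record marks most hits as doubtful in a second field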
#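 Recombinant Rango FRET biosensor (EYFP–snurportin 1 IBB–cerulean CFP10) at 0.1 uM premixed with 0.25 uM importin beta in PBS, 1 mM DTT, 0.02% Tween-20, 0.1% BSA. Compound added 5 min; RanGTP-RCC1 (0.6 uM Ran, 2 mM GTP, 0.2 uM RCC1) then triggers release, read at 45 min.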
# GLA inh pH 4.5: blocks human alpha-galactosidase A at pH 4.5 | purified enzyme, 4-MU-alpha-Gal fluorescence, pH 4.5 | activity change, negative = inhibition, % at 105 µM | AID 1467 | 230,000 tested, under 10 active | P06280; inconclusive = small, poorly fitted or top-dose-only inhibition, or a rising curve; inactive = flat fitted curve, though single readings scatter; no compound was filed as active;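 also: 0% = full activity with enzyme and -100% = basal without enzyme; dose as in the result columns while the protocol names 77 µM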
# miR-21 FLuc: raises the signal of a miR-21 reporter; HeLa miR-21 FLuc reporter, luciferase, 48 h; 340,000 tested, under 10 active; Potency, µM (top dose mostly 38.3 µM), inactives show at the highest dose reporter change, positive = more light; active = well fitted rising curve with a large enough effect; inconclusive = small, poorly fitted or top-dose-only effect; inactive = no such curve, though single readings can be large or run the other way;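 also: % of control where 0% means no effect; miR-21 action dims this reporter so a rising signal means less miR-21 action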
#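 Using DMEM plus 10% FBS, HeLa miR-21-FLuc cells are incubated with test compounds (final up to about 40uM) for 48 hours; firefly luciferase signal is then imaged following reagent-mediated lysis.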
# Rango complex inh: inhibitors of Rango-importin beta complex formation. Rango CFP/YFP FRET sensor + importin beta, 45 min. Potency, µM (doses to about 92.2 µM), for the others: top-dose inhibition of complex formation. 340,000 tested, 0.031% active; active = rising FRET ratio curve, often small or poorly fitted; inconclusive = mostly compound fluorescence or quenching in the first reads; inactive = flat curves in all reads;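 also: potency is read from the fitted curve at half-maximal effect; 0% = DMSO wells and 100% = buffer wells lacking importin beta; nearly all actives have a fitted effect of over 15% in size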
# Target sequence (Q14974 whole entry, looked up): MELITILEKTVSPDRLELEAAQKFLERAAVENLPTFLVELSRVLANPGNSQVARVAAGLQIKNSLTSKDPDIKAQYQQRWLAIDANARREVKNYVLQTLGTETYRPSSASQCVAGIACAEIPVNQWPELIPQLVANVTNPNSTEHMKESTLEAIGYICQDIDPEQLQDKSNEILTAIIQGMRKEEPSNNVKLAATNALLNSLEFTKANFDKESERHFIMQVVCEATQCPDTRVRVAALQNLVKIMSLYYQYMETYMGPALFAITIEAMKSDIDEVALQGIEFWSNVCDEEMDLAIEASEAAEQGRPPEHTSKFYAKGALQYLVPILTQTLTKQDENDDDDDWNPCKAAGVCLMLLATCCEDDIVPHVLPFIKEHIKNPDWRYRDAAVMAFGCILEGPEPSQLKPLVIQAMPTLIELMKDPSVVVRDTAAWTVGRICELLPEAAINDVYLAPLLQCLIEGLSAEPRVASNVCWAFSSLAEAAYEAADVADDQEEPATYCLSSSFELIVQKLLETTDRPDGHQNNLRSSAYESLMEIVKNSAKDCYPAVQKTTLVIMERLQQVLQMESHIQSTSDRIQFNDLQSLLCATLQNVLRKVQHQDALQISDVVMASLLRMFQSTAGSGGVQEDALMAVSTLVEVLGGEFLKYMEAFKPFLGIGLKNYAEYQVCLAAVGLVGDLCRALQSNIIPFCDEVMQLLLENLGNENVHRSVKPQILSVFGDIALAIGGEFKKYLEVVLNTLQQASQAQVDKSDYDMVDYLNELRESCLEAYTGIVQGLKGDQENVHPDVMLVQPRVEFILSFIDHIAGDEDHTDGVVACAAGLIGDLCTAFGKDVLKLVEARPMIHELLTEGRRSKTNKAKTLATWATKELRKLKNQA
#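 Inhibition scored from the CFP 486 nm/YFP 530 nm FRET ratio 45 min after adding 0.125 microM importin beta to 50 nM Rango biosensor preincubated 5 min with compound (room temperature, PBS with DTT, Tween-20, BSA). No-importin wells as positive control.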
# * marks the source's active call; other numbers are inactive results; ? = inconclusive; . = no result given; & = joins results of further samples; [ ] = another dose, or the depositor's remark.
mol | Rango release inh | GLA inh pH 4.5 | miR-21 FLuc | Rango complex inh
CCCCCN(CCCCC)C(=O)C(CCC(=O)O)NC(=O)c1ccc(Cl)c(Cl)c1 (centres undefined) | 11% | 2&0 | . | -4.8%
O=C(NC(=S)Nc1ccc(S(=O)(=O)N2CCCCC2)cc1)c1cccs1 | -13% | 0 | 3% | -0.9%
COC(=O)c1ccc(CSC2=NC[C@@H]3[C@@H]4C(=O)N(Cc5ccccc5)C(=O)[C@@H]4[C@](Cc4ccccc4)(C(=O)OC)N23)cc1 | -7% | . | . | 3.9%
O=C(/C=C/c1ccc(OC2CSC2)cc1)c1ccccc1 | -9% | 1 | -47% | -2.0%
COc1c(C)cccc1C(=O)NC(=S)Nc1cccc2nsnc12 | 11% | 10 | -20% | -3.3%
CCN(c1ccccc1)S(=O)(=O)c1cccc(C(=O)N(C)CCOc2ccccc2)c1 | 0% | . | . | 0.4%
CC(=O)N(Cc1ccccc1)c1ccccc1C(=O)O | ? | 1 | 1% | -2.4%
CCCCc1n[nH]c2c1C(=O)CC(C)(C)C2 | 9% | -1 | -2% | -0.4%
CCc1n(CC(O)COC2CCCCC2)c2ccccc2[n+]1C (centres undefined) | 0% | 2 | 3% | -0.1%
COc1ccc(CNC(=O)c2nnn(-c3cccc(C(F)(F)F)c3)c2N)cc1 | 10% | -8 | 1% | 0.3%
Cc1ccc(S(=O)(=O)N/N=C/c2ccc(O)cc2O)cc1[N+](=O)[O-] | -9% | 2 | -17% | -1.9%
CC1(C)CC2CN(C(=O)Cc3ccccc3)C(C)(C2)C1 (centres undefined) | 0% | 10 | -2% | 1.2%
CCC(C)(C)C1CCc2[nH]nc(C(=O)NCCN3CCOCC3)c2C1 (centres undefined) | -11% | . | . | -0.9%
COc1ccc(NC(=O)NNC(=O)c2ccc(-c3ccccc3)cc2)c(OC)c1 | -1% | . | -5% | 4.1%
CC(=O)c1cc2c(cc1NC(=O)c1cc3nc(C(C)C)cc(C(F)(F)F)n3n1)OCO2 | -1% | -1 | -1% | 0.0%
COc1cccc(-c2c(-c3cc(OC)cc(OC)c3)n(C)c3ccc(-c4ccc(OC)nc4)cc23)c1 | -2% | . | . | -2.6%
O=C(Nc1ccccc1Cl)c1cc(S(=O)(=O)N2CCCC(C(=O)O)C2)ccc1F (centres undefined) | 8% | 9 | -2% | 3.2%
COc1ccc(NC(=S)N2CCC(C(=O)c3ccc(C)cc3)CC2)cc1 | -15% | . | -4% | 0.1%
O=C(NNc1c(Cl)cc(Cl)cc1Cl)C1CCC1 | -17% | 6 | 2% | 4.5%
N#C/C(=C\c1c(N2CCN(Cc3ccccc3)CC2)nc2ccccn2c1=O)S(=O)(=O)c1ccccc1 | ? | . | -4% | ?
Cc1ccc(CCNC(=O)c2nnc(CS(=O)(=O)c3ccccc3)o2)cc1 | -3% | . | 0% | -1.5%
Cc1nn(C)c(Oc2ccccc2)c1CCNC(=O)CCl | -1% | 8 | 15% | -1.3%
C=CC[C@@H](CC(=O)N[C@H](CO)Cc1ccccc1)C(=O)N[C@H](COC(=O)[C@@H](CC=C)Cc1ccc(F)cc1)C(C)(C)C | -17% | . | . | 3.0%
O=C(Nc1ccc(Br)cc1)C1CCN(c2cnccn2)CC1 | 13% | . | 10%&21% | 2.3%
C/C(=N\O)C(C)Oc1ccc(Cl)cc1 (centres undefined) | -9% | -1 | 0% | 0.7%
COc1ccc(C(=O)Nc2ccc(F)cc2F)cc1OC | -3% | 2 | -36% | 1.8%
CCc1ccc(C(=O)O)cc1 | -17% | 3 | 2% | -1.5%
Cc1cc2c(cc(C(=O)OC(C)C(=O)NCc3ccccc3)n2C)o1 (centres undefined) | -7% | . | . | -2.7%
Cc1cccc(NC(=O)c2cccc(S(=O)(=O)N3CCCC3)c2)n1 | -14% | . | . | 1.2%
COc1ccc(-n2ccnc(SCC(=O)NC3CCCC3)c2=O)cc1 | -11% | . | 2% | 1.6%

# Entries of single compounds from above:
# COc1cccc(-c2c(-c3cc(OC)cc(OC)c3)n(C)c3ccc(-c4ccc(OC)nc4)cc23)c1 is listed with Rango release inh: -2%; GLA inh pH 4.5: .; miR-21 FLuc: .; Rango complex inh: -2.6%
# COc1ccc(C(=O)Nc2ccc(F)cc2F)cc1OC is listed with Rango release inh: -3%; GLA inh pH 4.5: 2; miR-21 FLuc: -36%; Rango complex inh: 1.8%
# O=C(Nc1ccc(Br)cc1)C1CCN(c2cnccn2)CC1 is listed with Rango release inh: 13%; GLA inh pH 4.5: .; miR-21 FLuc: 10%&21%; Rango complex inh: 2.3%

# Carrying on:
mol | Rango release inh | GLA inh pH 4.5 | miR-21 FLuc | Rango complex inh
C/C(=N\Nc1nc2c(s1)CCCC2)c1ccccc1 | -12% | -4 | 20% | -0.5%
CN1CCN(C2=C(Cl)C(=O)c3ccccc3C2=O)CC1 | -14% | . | . | ?
CCSc1nnc(NC(=O)c2ccc(C)cc2)s1 | -1% | 6 | -48% | 2.0%
CCc1nnnn1-c1ccc([N+](=O)[O-])cc1C | -5% | -1 | -10% | -0.1%
CCN(CC)S(=O)(=O)c1ccc(=O)n(CC(=O)N2CCCc3cc(C)ccc32)c1 | -5% | . | . | 0.0%
Cc1nc(N2CCN(c3ccccc3)CC2)[nH]c(=O)c1C | 2% | . | -2% | -0.3%
CCOC(=O)C1CCN(C(=O)c2ccc(OCC(=O)Nc3ccc(OCC)cc3)c(OC)c2)CC1 | 1% | . | . | -0.4%
Cc1cc(C)c2nc3s/c(=C/c4ccc5c(c4)n(C)c(=O)n5C)c(=O)n3c2c1 | . | -8 | -2% | .
CCOc1ccc(C(=O)NCC(=O)NCC(c2ccc(OC)cc2)N2CCCC2)cc1 (centres undefined) | 13% | . | . | -5.4%
O=C(NCc1cccs1)c1ccc(S(=O)(=O)N2CCOCC2)cc1 | 11% | 2 | -1% | 0.1%
COc1cc(/C=C2\NC(=S)N(C)C2=O)ccc1OCc1cccc(F)c1 | -16% | . | -8% | ?
CCc1nnc(NC(=O)CCCSc2nc3ccccc3[nH]2)s1 | -4% | 7 | 1% | -0.5%
Cc1cc(C)n2nc(SC(C)C(=O)N3CC(C)OC(C)C3)nc2n1 (centres undefined) | 4% | . | . | 0.9%
Cc1ccc(C(CNS(=O)(=O)c2ccccc2)N2CCN(C)CC2)cc1 (centres undefined) | -14% | . | . | -0.8%
Cc1ccc(S(=O)(=O)ON2C(=O)c3cccc4cccc(c34)C2=O)cc1 | 0% | -6 | -7% | -1.7%
CCCn1c(SCC(=O)N2CCCC2=O)nc2ccccc2c1=O | 1% | . | . | -0.2%
COc1cc(C2NC(=O)NC(C)=C2C(=O)OC2CCC(C)CC2)ccc1O (centres undefined) | 17% | . | -15% | 0.4%
Cc1ccc(NC(=O)CN2CC(C)SC2=NC2CCCCC2)cc1 (centres undefined) | 3%&9% | -4 | 0% | 0.5%&-3.1%
COC(=O)CCC(=O)OC1(C)C(=O)C2=CN(c3ccc(OC)cc3)C(c3ccc(OC)cc3)=CC2=C(Br)C1=O (centres undefined) | ? | 5 | . | ?
Cc1ccnn1CC(=O)N/N=C/c1cn[nH]c1-c1ccccc1 | 1% | 2 | 5% | 3.3%
Cc1ccc(-c2ccc(/C=N/N3C(=O)C4C5C=CC(C6CC56)C4C3=O)o2)c([N+](=O)[O-])c1 (centres undefined) | -13% | -7 | -10% | 0.0%
Nc1nc(NCc2ccccc2)nc(Nc2ccc(F)cc2)c1[N+](=O)[O-] | 0% | 3 | 0% | 7.3%
COCCOc1nc2c(c(=O)n(C)c(=O)n2C)n1CCc1ccccc1 | 22% | 3 | -8% | -2.0%
CN(C)CCNC(=O)c1c(O)c2c([nH]c1=O)CCCC2 | 7% | -3 | -4% | 1.0%
CC1NC(=O)NC1CCCCCC(=O)Nc1ccc(F)cc1 (centres undefined) | -9% | -14 | -3% | -0.2%
CCOc1ccc(NC(=O)CCNS(=O)(=O)c2cccs2)cc1 | 24% | 5 | -7%&4% | 0.1%
Cc1ccnc(SCc2cn3c(C)cccc3n2)n1 | 4% | -3 | -36% | 0.0%
COc1ccc2c(c1)CCC(C)N2S(=O)(=O)c1ccc(C2CNC(=O)C2)cc1 (centres undefined) | 11% | -17 | -1% | 2.5%
COc1ccc(-c2csc3ncn(-c4ccc(C)cc4)c(=O)c23)cc1OC | -1% | 6 | 0% | -1.9%
O=C(Cn1nnc(-c2ccccc2)n1)N/N=C/c1ccc(-c2ccc(Cl)cc2)o1 | -12% | 13 | -2% | -0.6%
OCCNc1nc(Nc2ccccc2)nc(Nc2ccccc2)n1 | -5% | -2 | -2% | 0.9%
CCN(CC)CCNC1=NCCn2c1cc1cc(OC)ccc12 | -8% | 2 | -3% | -7.8%
O=C(NCC1COc2ccccc2O1)c1c[nH]c2ccc(S(=O)(=O)N3CCOCC3)cc2c1=O (centres undefined) | 0% | 4 | -11% | -4.3%
COc1cccc(CNC(=O)COC(=O)CNC(=O)c2ccc(-c3ccccc3)cc2)c1 | 14% | . | . | -0.4%
C=CCOc1ccc(/C=N/O)cc1Cl | -11% | 1 | -33% | 1.6%
N/C(COc1ccc(Cl)cc1)=N\NS(=O)(=O)c1ccccc1 | 9% | 6 | 0% | -1.9%
NC(=S)NN=C1c2cc(Cl)ccc2-c2c1cc(Cl)cc2[N+](=O)[O-] | 3% | . | . | 3.2%
S=c1[nH]c2ccccc2n1CCc1ccncc1 | 6% | . | . | -0.4%
COc1ccc2cc(/C=N/NC(=O)c3c(Cl)cnn3C)c(Cl)nc2c1 | 3% | 5 | -2% | ?
Cn1c(SCC(=O)NC2CCCCC2)nnc1-c1ccccc1O | 0% | . | 0% | 0.6%
CCOC(=O)COc1ccc(S(=O)(=O)NC2CC2)cc1 | 13% | . | -3% | -2.3%
COc1ccc(NC(=O)/C=C/c2ccc(C)o2)cc1S(=O)(=O)N1CCOCC1 | ? | -2 | -3% | ?
Cc1ccc(NNC(=O)c2cc(C(C)(C)C)nn2Cc2ccccc2)cc1 | 12% | -6 | 19% | 1.0%
O=C(O)CCCC(=O)N1CCN(c2cccc(Cl)c2)CC1 | 0% | -13 | -3% | -0.1%
CCc1nc2ccc(C(=O)NCc3ccc(C)o3)cc2nc1CC | 4% | . | -4% | 0.0%
COc1ccc(C2CC(c3ccccc3)=NN2C(=O)COC(=O)c2nc3nc(C)cc(C)n3n2)cc1 (centres undefined) | 12% | -7 | -22% | -2.0%
COC(=O)c1sccc1NC(=O)CSCCc1ccccn1 | 25% | -1[21.1 µM] | -13% | -2.5%
CC(=O)Nc1ccc(C(=O)OCC(=O)N2CCCC2)cc1 | -1% | . | 0% | -0.9%
C/C(Cc1ccccc1)=N\NC(=O)CNC(=O)Cc1ccccc1 | -3% | -5 | 0% | -1.6%
CC1CCCCN1C(=O)COC(=O)c1ccc2c(c1)C(=O)N(Cc1ccco1)C2=O (centres undefined) | -17% | . | . | 1.4%
Cc1cccc(-n2ncc3c2CCCC3NC(=O)C2(C(N)=O)CC2)c1C (centres undefined) | -1% | . | 18% | 2.6%
COc1cc(CCC(=O)OCC(=O)Nc2cccc(S(=O)(=O)N(C)C)c2)cc(OC)c1OC | 0% | -8 | 9% | 5.8%
CCOC(=O)CSc1cc(C(F)(F)F)nc(-c2ccccn2)n1 | -20% | ? | -1% | 2.5%
COCCN(C(=O)Cc1cccs1)c1nnc(-c2cccnc2)s1 | 1% | -1 | -9% | -0.5%

# A run of entries from the list above, for reference:
mol | Rango release inh | GLA inh pH 4.5 | miR-21 FLuc | Rango complex inh
Cc1cccc(-n2ncc3c2CCCC3NC(=O)C2(C(N)=O)CC2)c1C (centres undefined) | -1% | . | 18% | 2.6%
COc1cc(CCC(=O)OCC(=O)Nc2cccc(S(=O)(=O)N(C)C)c2)cc(OC)c1OC | 0% | -8 | 9% | 5.8%
CCOC(=O)CSc1cc(C(F)(F)F)nc(-c2ccccn2)n1 | -20% | ? | -1% | 2.5%
COCCN(C(=O)Cc1cccs1)c1nnc(-c2cccnc2)s1 | 1% | -1 | -9% | -0.5%

# The list is partial; rates above refer to the full screens.
